# Screens as filed in PubChem.
# Vaccinia mCherry – qHTS for Stage-Specific Inhibitors of Vaccinia Orthopoxvirus: mCherry Reporter Primary qHTS; Vaccinia virus mCherry reporter infection, fluorescence; about a quarter of the inactives have no number; Potency, µM (highest dose often 36.5 µM), inactives show at the highest dose activity change, negative = inhibition, usual class: inhibitors; actives 0.63% (n = 310,000); AID 720579, 2013; active = well fitted inhibition curve with a large enough effect; inconclusive = small, poorly fitted or top-dose-only effect; inactive = no such curve, though single readings can be large or run the other way; tested in A549 cells; further: nearly all actives have a fitted effect of over 35% in size; inactives centre near -10
# VACV Venus inh – qHTS for Stage-Specific Inhibitors of Vaccinia Orthopoxvirus: Venus Reporter Primary qHTS | actives 0.46% (n = 330,000) | Potency, µM (doses to about 36.5 µM), inactives show top-dose activity change, negative = inhibition, usual class: inhibitors | Vaccinia virus Venus reporter expression, fluorescence; active means well fitted inhibition curve with a large enough effect; inconclusive means small, poorly fitted or top-dose-only effect; inactive means no such curve, though single readings can be large or run the other way; tested in A549 cells; further: nearly all actives have a fitted effect of over 30% in size; inactives centre near -10
# * hit, by the source's call; i = inactive; ? = inconclusive; . = not tested or not shown; & = joins results of further samples; [ ] = remark or other dose. On the % scale 0 is the no-effect control and ±100 the full control effect; potency means the concentration at half of the fitted maximal effect. Rows are unselected, and some 0.88% of all compounds hit somewhere here.
SMILES	Vaccinia mCherry	VACV Venus inh
C=CCN(C(=O)c1csnn1)C(C(=O)NC1CCCC1)c1ccccc1 (centres undefined)	-14%	16%
O=C(CSc1nnc(-c2c[nH]c3ccccc23)o1)N(Cc1ccccc1)c1ccc(F)cc1	?	?
N#Cc1c(SCc2ccccc2)sc(C(=O)c2ccccc2)c1N	.	-15%
Cc1ccc2c(cnn2C(=O)CCC(=O)NCc2ccccc2Cl)c1	-2%	-1%
COc1cc(CN2C[C@@H](CO)O[C@@H](n3cnc4c(N(C)C)ncnc43)C2)cc(OC)c1OC	5%	1%
O=C(Nc1ccc2c(c1)OCO2)c1cc(C2CCCCN2C(=O)c2ccccc2)on1 (centres undefined)	32%[activator]	-13%
Cc1ccc(NC(=O)c2cc(S(=O)(=O)N3CCCCCC3)ccc2F)cc1F	-12%	-6%
NC(=O)[C@H](Cc1cc2ccccc2s1)NC(=O)[C@@H]1CC2(CC(c3cccc(NC(=O)[C@@H]4CCC(=O)N4)c3)=NO2)CN1C(=O)/C=C/c1c(F)cccc1Cl (some centres undefined)	10%	-8%
COc1cccc(NC(=O)C2(C)CCCN2C(=O)C(C)C)c1OC (centres undefined)	13%	9%
N#Cc1ccc(CN(c2ccncc2)S(=O)(=O)c2ccccc2)cc1	i	-12%
Cc1cccc(C)c1NC(=S)N1CC(C)OC(C)C1 (centres undefined)	0%	-8%
Cc1ccc(CCN2CC(C(=O)NC(C)C)CC2=O)cc1 (centres undefined)	i	-2%
CC(=O)c1c(C)[nH]c(C(=O)NCc2ccc(F)cc2)c1C	5%	-4%
Cc1ccc(C(=O)N2CCN(CCNC(=O)C(=O)Nc3ccc(Cl)cc3)CC2)cc1	i	-15%
CCCN=Cc1ccc(O)cc1	-6%	-5%
CCCCOc1ccc(CC2CCC(=O)NC2=O)cc1 (centres undefined)	-9%	-7%
Cc1cc(C)n(-c2nc(C)c(C)c(=O)n2CC(=O)Nc2ccc(OC(F)(F)F)cc2)n1	-12%[7.34 µM]	-3%[7.34 µM]
Cc1ccc(S(=O)(=O)N2CCN(C(=O)COC(=O)CSc3cc(C)ccc3C)CC2)c(C)c1	-2%	-22%
COc1ccc(NC(=O)COc2ccc(-n3cnnn3)cc2)cc1OC	-21%	-1%
CCN(CC)S(=O)(=O)c1cccc(NC(=O)C(=O)c2c(-c3ccccc3)cc3ccccn23)c1	?	-21%
C=Cc1ccc(CC2(C)C(=O)Nc3c(Cl)cccc32)cc1 (centres undefined)	-3%	5%
COc1ccc2nc(NC(=O)CN(C)S(=O)(=O)c3cccs3)sc2c1	?	-26%
O=C(NCCc1ccccc1)C(=O)NCC1OCCN1S(=O)(=O)c1ccc(F)cc1 (centres undefined)	-21%	-26%
CCOc1ccc(NC(=O)Nc2cc(C(C)C)c(O)cc2C)cc1	?	-19%
COc1ccccc1CCNC(=O)c1cc(-c2ccccn2)nc2ccccc12	-20%	-16%
c1csc(C(c2nnnn2C2CCCCC2)N2CCN(c3nc4ccccc4s3)CC2)c1 (centres undefined)	-4%	-3%
O=[N+]([O-])c1ccc(C[n+]2cccc3ccc4cccnc4c32)cc1	?	?
CCOC(=O)c1ccc(NC(=O)c2nc[nH]c2C(=O)NC)cc1	i	-10%
Cc1cc(C(C)(C)C)ccc1OCCN(C)C	.	-14%
Cc1cc(-c2cc(C(=O)NCc3ccccc3)on2)nc(NC2CCCC2)n1	-1%	-23%
O=C(CN1CCN(S(=O)(=O)c2ccc(Cl)cc2)CC1)N1CCCC1	-7%	-12%
CCCCNS(=O)(=O)c1ccc2nc(SCC(=O)c3ccc(C#N)cc3)[nH]c2c1	.	-29%
Cc1cc(C)c(NC(=O)Nc2ccc3c(c2)OCO3)c(C)c1	i	-22%
Nc1nc2c(s1)CCCCCCCCCC2	?	-3%
Cc1cccc(CC(=O)OCn2nnc3ccccc3c2=O)c1	7%	5%
COC(=O)Nc1ccc(S(=O)(=O)N2CCCC(C(=O)N3CCCCC3)C2)cc1 (centres undefined)	-15%	-25%
Cc1cc(F)ccc1N1CCC(N2CCN(C)C(CCO)C2)CC1 (centres undefined)	-14%	-3%
Cc1cc(C(=O)NCCC2=CCCCC2)ccc1[N+](=O)[O-]	-17%	-13%
CO[C@@H]1CN(C)C(=O)c2cc(NS(=O)(=O)c3ccc(C)cc3)ccc2OC[C@H](C)N(Cc2nccs2)C[C@H]1C	-5%	-17%
COC(=O)c1sc(NC(=O)c2cccc([N+](=O)[O-])c2)c(C(N)=O)c1C	i	-8%
COc1cc(/C=C/C(=O)O)cc(S(=O)(=O)NCCCO)c1OC	-11%	10%
COC(=O)c1cn(C(=O)c2ccc(C)c(C)c2)c2ccccc12	?	-29%
CCOc1ccc(-n2c(SCC(=O)Nc3ccc4c(c3)OCO4)nc3c(c2=O)SCC3)cc1	?	-24%
CCc1ccccc1NC(=O)CN(C)C(=O)COC(=O)c1ccccc1Cl	-22%	-7%
OCC[C@@H]1C[C@H](O)[C@@H](O)[C@@]2(CCc3ccccc3O2)O1	-19%	-7%
Cc1cc(C)c(NS(=O)(=O)c2ccc(NC(=O)c3cccs3)cc2)c(C)c1	-11%	-19%
CCSc1nc2nn(-c3ccccc3)c(=O)c-2c2n1CCCCC2	.	6%
COc1ccc(/C=C(\C#N)C(=O)NCCc2ccccc2)cc1OCc1ccccc1	-7%	-20%
CCc1ccccc1NC(=O)Cc1ccc(-n2cccc2)cc1	-14%	-17%
CC(=O)Oc1ccc(N(C(C)=O)S(=O)(=O)c2ccc(C)cc2)c2ccccc12	i	-4%
CC(C)Cc1nnc(NC(=O)CCC(=O)NCc2ccccc2Cl)s1	-1%	-10%
COc1ccc(C(O)c2nc(-c3ccc(C)c(C)c3)cs2)cc1 (centres undefined)	-10%	?
Cc1cc(C)n2cc(CSCC(=O)O)nc2n1	-12%	6%
COc1ccc(OCC(=O)N2CCN(S(=O)(=O)c3ccccc3[N+](=O)[O-])CC2)cc1	-15%	-13%
COc1ccc(NC(=O)c2c(F)cccc2F)cc1S(=O)(=O)Nc1ccc(Br)cc1	-13%	-14%
C/C(=N\O)c1c(O)cc(-c2ccccc2)n(-c2ccccc2)c1=O	-17%	-10%
O=C(C1=C[C@H](c2coc3ccccc3c2=O)C[C@H](OCCCCO)O1)N1CCN(Cc2ccccc2)CC1	5%	-8%
Clc1ccc(C(c2nnnn2C2CCCC2)N2CCSCC2)cc1 (centres undefined)	i	-22%
Cc1ccc(OCC(=O)NNC(=O)c2cc(S(=O)(=O)N(C)C)ccc2N2CCCC2)cc1	i	-4%
CCOC(=O)Cc1csc(NC(=O)Cc2ccc([N+](=O)[O-])cc2)n1	-13%	-3%

# Other records.
SMILES	Vaccinia mCherry	VACV Venus inh
COc1cc(C2C(C(=O)Nc3ccccc3OC)=C(C)Nc3ncnn32)ccc1O (centres undefined)	-21%	-13%
CCCSc1ccc([C@H]2N[C@@](CC(C)C)(C(=O)OC)[C@H]3C(=O)N(C)C(=O)[C@@H]23)cc1	-7%	-17%
Cc1ccc(-c2nc3ccccc3[nH]2)cc1NC(=S)NC(=O)c1ccccc1Br	-12%[1.46 µM]	-17%
O=S(=O)(Cc1cc(Sc2ccc(Cl)cc2)nc(-c2ccccc2)n1)c1ccccc1	.	-11%
COc1ccc(OC)c(NC(=O)c2cnc3n(c2=O)CCS3)c1	?	?
COc1ccc(C(=O)NCc2cccs2)cc1S(=O)(=O)N1CCOCC1	i	8%
COc1ccc(N(C(=O)CCl)C(C)(C(=O)Nc2c(C)cccc2C)c2ccccn2)cc1 (centres undefined)	i	-7%
O=C(O)CCc1ccc(-c2ccc(Br)cc2)n1-c1ccc(O)cc1	?	-7%
NC(=O)C1CCN(S(=O)(=O)c2ccc3c(c2)OCCO3)CC1	i	-21%
Cc1ccsc1C1NC(=O)c2c(sc3c2CCN(C)C3)N1 (centres undefined)	32%[activator]	-7%
O=C(O)C1CCC(Cn2c(SCc3cc(=O)n4cc(Br)ccc4n3)nc3ccsc3c2=O)CC1 (centres undefined)	-2%	-16%
Cc1cccc(NC(=O)c2ccc(Cn3cc(C(F)(F)F)ccc3=O)cc2)c1	0%	-20%
O=C(NC1CCCC1)C(c1ccc(Cl)cc1)N1CCc2ccccc21 (centres undefined)	?	-27%
Cc1ccccc1NC(=O)CSc1nc2ccc(Nc3nc(N4CCOCC4)nc(N4CCOCC4)n3)cc2s1	i	-14%
O=C(Nc1ccccc1)OCC1CCCO1 (centres undefined)	5%	1%
CCOC(=O)Cn1c(=N)n(CCOc2ccc(OC)cc2)c2ccccc21	-5%&-23%	3%&-15%
CCN(CC(=O)NCc1ccc(F)cc1)CC(=O)Nc1ccc(Br)cc1F	i	-8%
Cc1ccc(NC(=S)Nc2ccc(OC(F)F)c(Cl)c2)cc1Cl	-25%	?
C[C@H]1CN(c2ccc(Br)cc2)C(=O)[C@@H]1CC(=O)Nc1ccc(Br)cc1	-8%	-9%
COCc1cc(CNC(=O)C2CCC(=O)N(Cc3ccccc3OC)C2)[nH]n1 (centres undefined)	-8%	-9%
O=C(CSc1nc(=O)n(Cc2ccncc2)c2c1CCC2)Nc1cccc(F)c1	-3%	-19%
CCn1c(CSc2nc3ccccc3n2C)nc2ccccc21	-19%	-15%
Cc1ccc(S(=O)(=O)Nc2nc3n(n2)C(c2ccc(Cl)cc2)CC(=O)N3)cc1 (centres undefined)	.	-11%
Cc1ccc(NC(=O)c2c(C)oc3ccc(O)c(CN4CCCCCC4)c23)c(C)c1	-14%[7.34 µM]	-14%[7.34 µM]
Cc1cc(C)nc(-n2nc(C)c3c(=O)[nH]c(C(F)(F)F)nc32)n1	-17%[1.46 µM]	-8%
O=C1c2cccc(OCC(=O)N3N=C(c4cccs4)CC3c3ccc(F)cc3)c2CCN1Cc1ccccc1 (centres undefined)	i	-7%
COc1ccc(Cn2nnc(C(=O)Nc3cc(OC)ccc3OC)c2N)cc1	-28%	-7%
CC(=O)Oc1ccc(C(=O)Nc2cccc(NC(=O)c3ccco3)c2)cc1	i	-3%
CCNC(=O)CN(c1ccc(Oc2ccccc2)cc1)S(=O)(=O)c1ccccc1	-17%	-28%
CN(Cc1ccccc1)C(=O)COC(=O)CCC(=O)c1ccc(F)cc1	-15%	-9%

# Exported as labelled records: part of the list above.
> O=C(C1=C[C@H](c2coc3ccccc3c2=O)C[C@H](OCCCCO)O1)N1CCN(Cc2ccccc2)CC1
  Vaccinia mCherry: 5%
  VACV Venus inh: -8%
> COC(=O)Nc1ccc(S(=O)(=O)N2CCCC(C(=O)N3CCCCC3)C2)cc1 (centres undefined)
  Vaccinia mCherry: -15%
  VACV Venus inh: -25%

# More records follow.
SMILES	Vaccinia mCherry	VACV Venus inh
Cc1ccc(S(=O)(=O)NCC2CCC(C(=O)NC3CCCCC3)CC2)cc1 (centres undefined)	i	-15%
Cc1ccc(NC(=O)c2ccc(CSc3nccc(C)n3)cc2)cc1	-22%	?
C[N+](C)(CC#N)C/C=C\c1ccccc1	i	-4%
CC1(c2ccccc2)CC(c2ccccc2)=Nc2nonc2N1 (centres undefined)	.	-16%
O=C1C(Cl)=C(NCC2CCCO2)C(=O)N1c1cccc(Cl)c1Cl (centres undefined)	.	-9%
CCOc1ccc(CCNC(=O)c2cccc(Nc3nc4ccccc4nc3-n3nc(C)cc3C)c2)cc1OCC	-2%	-10%
Cc1nnc(SCC(=O)Nc2nnc(-c3ccccc3)o2)s1	-22%	-11%
CCCC1CCC(=NNC(=O)CNc2ccc(OC)cc2)CC1 (centres undefined)	-3%	-21%
CC(=O)Nc1ccc(NC(=O)CSc2nnnn2C2CCCCC2)cc1	-5%	-17%
O=C(NC(=S)Nc1cccc(NC(=O)c2ccc(Cl)cc2Cl)c1)c1cccs1	-12%	-26%
O=C(CN1C(=O)c2ccccc2S1(=O)=O)N1CCc2ccccc2C1	.	-10%
Cc1cc(C)c(-c2cc(C(F)(F)F)no2)c(=O)[nH]1	-12%	-8%
O=C1NC[C@@H](Cc2cccc3ccccc23)N(CC2CCCCC2)C1=O	-16%	?
O=C(NC1CC(=O)N(c2ccc(F)cc2)C1)N1CCN(C(=O)c2ccco2)CC1 (centres undefined)	i	-10%
CC(=O)Oc1ccc(C(=O)Nc2ccccc2C(=O)N2CCCC2)cc1	-14%	-10%
Cc1ccc2nc(NC(=O)c3ccc4c(c3)OCO4)sc2c1	?	-18%
CC(=O)c1c(C)[nH]c(C(=O)OCCOc2ccccc2)c1C	-11%	-5%
CC(C)(C)c1ccc(C(=O)NCC(=O)OCC(=O)Nc2nc(-c3ccc(F)cc3)cs2)cc1	-8%	-7%
COc1ccc(F)cc1S(=O)(=O)N1CCC(C(N)=O)CC1	?	13µM*
CCCCN(C)C(=O)c1ccc(Nc2nc(C(N)Cc3ccc(C(F)(F)F)cc3)cs2)nc1 (centres undefined)	-20%	-21%
COc1ccc(Nc2nc(Nc3ccc(OC)cc3)nc(-n3[nH]c(=O)c(C)c3C)n2)cc1	?	-28%
